# WNV NS2B-NS3 inh: blocks West Nile virus NS2B-NS3 protease activity; actives 0.18% (n = 65,000); z-score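 (tested at a level between 10 and 100 µM)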; WNV NS2B-NS3 protease, fluorogenic substrate Ex360/Em465; hits give low values; AID 577; P06935;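 active = z-score at -3 or under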;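 also: score is relative to mean and spread of the compound wells of a plate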
# Target sequence (P06935 1371-1501 limits assumed): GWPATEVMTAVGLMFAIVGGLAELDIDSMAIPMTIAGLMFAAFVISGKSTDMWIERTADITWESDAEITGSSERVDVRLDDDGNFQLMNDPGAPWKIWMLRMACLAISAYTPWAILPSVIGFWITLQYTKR
# Target sequence (P06935 1502-1679 limits assumed): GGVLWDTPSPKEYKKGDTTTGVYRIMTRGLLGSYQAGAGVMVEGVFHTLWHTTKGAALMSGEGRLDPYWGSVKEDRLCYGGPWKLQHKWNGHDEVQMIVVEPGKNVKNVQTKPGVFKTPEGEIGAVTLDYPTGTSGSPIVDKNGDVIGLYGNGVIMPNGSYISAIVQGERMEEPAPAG
# Hsc70: Hsc70 inhibitors, probe displacement, primary screen, biochemical, fluorescence polarization (AID 568); Hsc70 fluorescence polarization, probe displacement; higher % means a stronger effect; strong numbers were not always called active; 83,000 tested, under 10 active; displacement, % at 20 µM; hits with a dose series show IC50 in µM;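 active = displacement above 50% without optical interference and an IC50 on retest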;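 also: ATPase domain with a fluorescein-tagged ATP probe; 0% = vehicle and 100% = excess ADP; read after one hour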
# MT1-MMP reporter: MT1-MMP gene expression reporter suppression – cell-based, luciferase reporter, luminescence (AID 618). MT1-MMP promoter luciferase reporter cells, luminescence. calls from a first round at 10 µM; hits with a dose series show EC50 in µM. actives 0.62% (n = 87,000);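 active = over half of the reporter light lost at 10 µM or EC50 under 50 µM; inactive = the rest and hits that failed the dose series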;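 also: actives suppress MT1-MMP promoter-driven transcription so potencies describe inhibitors; HT1080 fibrosarcoma cells; overnight exposure; toxic or luciferase-blocking compounds were not removed from the actives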
# * = called active by the depositor; i = inactive; / = not tested or not shown; + = active, no number.
SMILES,WNV NS2B-NS3 inh,Hsc70,MT1-MMP reporter
COC(=O)c1ccccc1NC(=O)CSc1nc(NC(=O)c2ccccc2)c2c(C)c(C)oc2n1,-0.01,-13%,i
Cc1cc(NC(=O)CCC(=O)N(CC2CCCO2)C(C(=O)NC2CCCC2)c2ccccc2C)no1 (centres undefined),-0.41,3.2%,i
O=C(Nc1nccs1)NC(C(F)(F)F)C(F)(F)F,-0.03,-1.8%,i
COC(=O)c1cccc(NS(=O)(=O)c2ccc(OC)cc2)c1C,/,-5.1%,i
CCC(c1nnnn1Cc1ccccc1)N(Cc1cc2cc(OC)ccc2[nH]c1=O)CC1CCCO1 (centres undefined),-0.11,3.2%,i
CCOC(=O)C(CC)Sc1nnc(COc2ccc(C)cc2)n1-c1ccccc1 (centres undefined),/,1.7%,i
O=C(NC(=Nc1ccccc1)N1CCOCC1)Nc1ccccc1,-0.69,-0.3%,i
CN1CCN(C(=S)Nc2ccccc2Cl)CC1,/,2.6%,i
O=C1c2ccccc2C(=O)N1CCCc1nc(-c2ccncc2)no1,/,1.7%,i
COc1ccc2c(c1)S/C(=C\C(=O)c1ccncc1)N2C,1.8,-70%,i
CCOc1ccccc1NC(=O)/C=C/C(N)=O,/,-3.3%,i
COc1ccc(-n2c(-c3ccco3)n[nH]c2=S)cc1,2.7,1.3%,i
Cc1ccc(C)c2[nH]c(=O)c(CCNC(=O)c3cc4ccccc4o3)cc12,1.2,-1.9%,i
COc1ccccc1OCC(O)Cn1c(Br)nc2c1c(=O)[nH]c(=O)n2C (centres undefined),-0.77,1.0%,i
c1ccc2c(c1)CNc1ccccc1C2,-1,5.5%,i
CCn1c(SCC(=O)N2CCCC2)nnc1-c1ccc(N)cc1,/,1.7%,i
CC(=O)/C(C(=N)N1CCN(Cc2ccccc2)CC1)=C(\C)O,0.12,11%,i
CC1CCN(C(=O)Cn2cc3c(n2)CCCC3)CC1,0.32,-2.7%,i
CC(C)O/C(=N\S(=O)(=O)c1ccc(Cl)cc1)c1ccccc1,/,-0.4%,i
COc1cc(C2c3c(n[nH]c3C)C(=O)N2c2ccc(Br)cc2)ccc1O (centres undefined),-1,1.4%,i
C=CCNC(=O)NC(=O)COC(=O)COc1ccc(Br)cc1F,-0.48,0.2%,i
O=S(=O)(c1ccccc1Cl)N1CCC(O)(c2ccc3c(c2)OCO3)CC1,-0.54,-3.6%,i
COc1ccc2cnn(CCOc3ccccc3)c(=O)c2c1OC,-0.16,5.0%,i
COc1ccc(CC(=O)Nc2ccc(-c3noc(-c4cc(OC)c(OC)c(OC)c4)n3)cc2)cc1,-0.77,1.2%,i
COCCn1nnnc1C(C(C)C)N1CCN(C(=O)c2ccco2)CC1 (centres undefined),0.56,-6.0%,i
Cc1ccnc2nc(C(=O)OCCOc3ccccc3)nn12,-0.4,-0.1%,i
Cn1c(=O)n(CCC(=O)O)c2ccccc21,0.04,1.5%,i
O=C(CN(Cc1ccccc1Cl)C(=O)c1ccc(CN2CCOCC2)o1)NCc1ccccc1,-1.1,-11%,i
Cc1ccc2nc(NCc3ccccc3)[nH]c2c1,-0.26,5.3%,i
NC(=O)C1(N2CCCCC2)CCN(C(=O)CCCn2c(=O)[nH]c3ccsc3c2=O)CC1,-0.81,2.9%,i
COc1ccc2c(C(=O)CN(C)C3CCCCC3)c[nH]c2c1,0.14,-25%,i
CCOC(=O)c1cnc2cc(C)nn2c1C,/,2.6%,i
CCCC(=O)c1ccc(N2CCCC2)c(F)c1,/,-2.6%,i
CCOc1ccccc1C1CC(=O)Nc2cc3c(cc21)OCO3 (centres undefined),0.17,-3.6%,+
CCN1CCN(P2(=O)C=C(c3ccccc3)OC(c3ccccc3)=C2)CC1,1.8,1.3%,i
O=C1NC(=O)C(CC(=O)N(Cc2ccco2)C2(C(=O)NC3CCCCC3)CCCCC2)N1 (centres undefined),-1.1,3.2%,i
Cc1nn(CCC#N)c(NC(=O)c2ccc(Cl)cc2)c1P(=O)(Nc1ccc([N+](=O)[O-])cc1)N1CCOCC1 (centres undefined),/,0.5%,i
Cc1cc2ncn(C(=O)c3c(-c4ccccc4Cl)noc3C)c2cc1C,-1.1,8.7%,i
CC(=O)N1CN(Cc2ccccn2)Cc2c1sc1c2CCCC1,2.1,7.1%,i
CN=C1c2c(-c3ccccc3)c3cc(OC)ccc3n2CCN1C,-0.83,1.9%,i
CN(C)S(=O)(=O)c1ccc2nc(NC(=O)c3cccs3)sc2c1,/,0.1%,i
COc1ccc2nc(NC(=O)c3cccc(S(=O)(=O)N4CCOCC4)c3)sc2c1,/,0.6%,i
CCOc1ccc(NC(=O)CCN2CCCCC2)cc1,-1.4,-3.7%,i
CC12CN3CCN(CC(C3)C1(O)CN1CCCCC1)C2 (centres undefined),-0.96,2.2%,i
O=C(Nc1cccc2ccccc12)c1cnccn1,-0.3,2.7%,i
CCOC(=O)C1(C)/C(=N/Nc2ccccc2)C(=O)C(=O)N1c1ccccc1 (centres undefined),/,4.6%,i
CCCCn1c(SCC(=O)Nc2ccc(OC)cc2)nc2ccc(N3CCOCC3)cc2c1=O,0.3,1.2%,i
C=C(C)C1CCC(C)=C1COC(=O)Nc1ccccc1 (centres undefined),-0.36,0.9%,i
CCOC(=O)C1CCN(CC(=O)Nc2cc(C)nn2-c2nc3ccccc3s2)CC1,/,-3.2%,i
COCCNC(=O)CN(C(=O)CCC(=O)Nc1cc(C)on1)c1cccc(C)c1C,1.5,-5.7%,i
O=C(NCCN1CCOCC1)c1cc2ccccc2[nH]1,0.73,1.7%,i
Cc1ccc(Cl)cc1N1CCN(C(=O)CCS(=O)(=O)c2cccc3nonc23)CC1,-0.86,4.2%,i
COc1cc2nc(NC(=O)c3ccc(Cl)cc3)[nH]c(=O)c2cc1OC,-0.44,-2.1%,i
CCCCC(OC(=O)c1cc2occc2n1C)C(=O)NCC1CCCO1 (centres undefined),-0.59,-1.2%,i
O=C(Nc1ccc(Cl)c(Cl)c1)N1CCC(N2CCCCC2)CC1,0.34,-2.5%,i
CCOC(=O)c1cnc(SCC(=O)NCc2ccco2)nc1N,-0.62,0.2%,i
Cc1cc(C)cc(N2CCCn3c2nc2c3c(=O)n(CCN3CCOCC3)c(=O)n2C)c1,0.97,1.7%,i
CC(C)COc1ccc(C(=O)CCN2CCCCC2)cc1,-0.78,-9.6%,i
CCCCn1c(NCCC)nc2c1c(=O)[nH]c(=O)n2C,-0.09,2.2%,i
COc1ccc(NC(=O)CSc2nnc(COc3ccccc3)n2Cc2ccco2)cc1OC,-0.31,-10%,i

# Sorted by count of non-hydrogen atoms (highest first): ten of the compounds above
SMILES,WNV NS2B-NS3 inh,Hsc70,MT1-MMP reporter
CCCCn1c(SCC(=O)Nc2ccc(OC)cc2)nc2ccc(N3CCOCC3)cc2c1=O,0.3,1.2%,i
Cc1cc(C)cc(N2CCCn3c2nc2c3c(=O)n(CCN3CCOCC3)c(=O)n2C)c1,0.97,1.7%,i
CCOC(=O)C1CCN(CC(=O)Nc2cc(C)nn2-c2nc3ccccc3s2)CC1,/,-3.2%,i
CCOC(=O)C1(C)/C(=N/Nc2ccccc2)C(=O)C(=O)N1c1ccccc1 (centres undefined),/,4.6%,i
CCCCC(OC(=O)c1cc2occc2n1C)C(=O)NCC1CCCO1 (centres undefined),-0.59,-1.2%,i
COc1cc2nc(NC(=O)c3ccc(Cl)cc3)[nH]c(=O)c2cc1OC,-0.44,-2.1%,i
O=C(Nc1ccc(Cl)c(Cl)c1)N1CCC(N2CCCCC2)CC1,0.34,-2.5%,i
CC(C)COc1ccc(C(=O)CCN2CCCCC2)cc1,-0.78,-9.6%,i
CCCCn1c(NCCC)nc2c1c(=O)[nH]c(=O)n2C,-0.09,2.2%,i
O=C(Nc1cccc2ccccc12)c1cnccn1,-0.3,2.7%,i

# (listing goes on)
SMILES,WNV NS2B-NS3 inh,Hsc70,MT1-MMP reporter
Cc1ccc(-c2ccc(CCC(=O)O)n2-c2cccc(O)c2)cc1,/,-1.3%,i
O=C(CN(C1CCCCC1)S(=O)(=O)c1ccc(Cl)cc1)NCCCO,-1.1,3.4%,i
Cc1cc(NS(=O)(=O)c2ccc(NC(=O)COc3ccc(Cl)cc3)cc2)no1,-0.27,-3.1%,i
Cc1c(NC2=C(Cl)C(=O)N(c3ccccc3)C2=O)c(=O)n(-c2ccccc2)n1C,1.2,-6.2%,i
CCn1cc(S(=O)(=O)CC(=O)Nc2ccc3c(c2)OCCO3)c2ccccc21,-0.73,2.2%,i
COC(C)(C)[C@]12CC(O)(C(C)C)ON1[C@H]1CCCCC1N2O (some centres undefined),-0.69,4.3%,i
O=C1CC(c2ccccc2)n2ncnc2N1 (centres undefined),0.64,0.1%,i
O=C(CSc1nnc(-c2ccc(OC(F)F)cc2)o1)NC(=O)NCc1ccco1,-2.5,-1.5%,i
CC(C)(C)C(=O)Nc1ccccc1N1CCN(C(=O)c2ccc(Cl)cc2)CC1,-0.55,-1.3%,i
Cc1ccc(CNC(=O)Nc2ccccc2)cc1,-1.7,0.2%,i
CCOc1ccc2c(C)c(C(=O)O)oc2c1OCC,-0.64,2.1%,i
CC(C)[C@H](Nc1nc(-c2ccccc2)nc2c1oc1ccccc12)C(=O)O,/,3.2%,i
CCc1ccc(S(=O)(=O)NCc2csc(-c3cccnc3)n2)s1,-0.02,-3.7%,i
CCOC(=O)CNC(=O)C(CC(C)C)NC(=O)C1CCCCC1 (centres undefined),/,0.6%,i
CCOc1ccc(-n2c(=O)c3c4c(sc3n(CC(=O)NCc3ccco3)c2=O)CCC4)cc1,-0.34,-2.6%,i
COc1ccc(-c2nnc(SC3CCOC3=O)n2C2CCCCC2)cc1OC (centres undefined),0.26,-2.6%,i
CC1(C)CC(=O)C(C=NCCN2CCN(C(=O)c3ccc(F)cc3)CC2)=C(O)C1,/,4.4%,i
COc1ccc(NC(=O)C2CCCN2C(=O)NCc2ccccc2)c(OC)c1 (centres undefined),2.2,-8.9%,i
COC(=O)c1cc(NC(=O)CSc2nnc(CN3CCOCC3)n2C)ccc1Cl,0.49,-0.8%,i
COC(=O)c1cc2ccsc2n1Cc1cc(=O)n2ccccc2n1,-0.93,-2.0%,i
Fc1ccc2nc(Nc3nc4c(s3)CCCC4)sc2c1,-0.65,-49%,i
CCn1c(-c2ccccc2O)n[nH]c1=S,-0.57,-2.6%,i
COc1ccc(S(=O)(=O)NC(CC(=O)NCCc2ccc(OC)c(OC)c2)c2ccco2)cc1 (centres undefined),0.32,-1.3%,i
CCOC(=O)c1ccc(NC(=O)CSc2nc(SC)ns2)cc1,-0.48,-3.7%,i
COC(=O)CCCc1nc2ccccc2s1,0.75,2.4%,i
Cc1cccc2c1N1C(=O)c3c(C(=O)O)cccc3C1CC2C (centres undefined),/,6.4%,i
CCCn1nnnc1NC(=O)CSc1ccc(Cl)cc1,0.3,8.9%,i
OC1(c2ccc(OC(F)F)cc2)CSC(=Nc2cccnc2)N1C1CC1 (centres undefined),/,3.4%,i
CC(Oc1ccc(Cl)cc1Cl)c1nc(-c2ccc(NC(=O)c3ccccn3)cc2)no1 (centres undefined),/,2.2%,i
COc1ccc(C(C)=O)cc1CSc1nc2ccccc2o1,-0.2,-0.2%,i
Cc1ccc(NC(=O)CCNS(=O)(=O)c2cccc3nonc23)cc1,-0.92,-1.6%,i
CCOC(=O)c1c(NC(C)=O)sc2c(O)c(CN3CCN(CC)CC3)ccc12,0.84,-9.4%,i
Fc1ccc(-c2ccc(-c3nn4c(-c5ccco5)nnc4s3)o2)cc1,-0.04,-15%,i
Cc1cc(C)n2nc(C(=O)OCC(=O)Nc3ccc4c(c3)OC(F)(F)O4)nc2n1,/,2.6%,i
CC(C(=O)OCC(=O)Nc1ccc2c(c1)OCO2)N1C(=O)c2ccccc2C1=O (centres undefined),0.18,3.7%,i
CCOC(=O)c1[nH]c2c(c1C)C(=O)CC(c1ccco1)C2 (centres undefined),0.53,-0.3%,+
COc1cc(C2NC(=O)NC(C)=C2C(=O)NCc2ccccc2)c(Cl)cc1O (centres undefined),/,5.7%,i
c1ccc(CCc2nn3c(-c4ccncc4)nnc3s2)cc1,-0.62,-0.5%,i
CCOC(=O)c1oc2ccccc2c1NC(=O)c1cccc(OC)c1,-0.35,-0.3%,i
CCC(CC)c1nnc(NC(=O)c2ccc(N3CCCC3=O)cc2)s1,/,4.5%,i
CCN1CCN(C(=O)c2ccc3c(=O)n(Cc4ccccc4OC)c(=S)[nH]c3c2)CC1,-0.68,3.4%,i
O=C(c1ccc(Br)o1)N(Cc1ccccc1)c1ccccn1,0.4,-7.1%,i
O=C(O)c1cccc(COc2ccccc2Cl)c1,-0.49,6.9%,+
CCOC(=O)c1ccccc1NC(=O)c1cccnc1,1,-2.4%,i
COc1ccc(N/C(C)=C2/C(=O)C(=O)N(CCO)C2c2ccc([N+](=O)[O-])cc2)cc1 (centres undefined),/,-0.4%,i
CC1=C(C)/C(=N\OS(=O)(=O)c2ccccc2)C=CC1=O,/,1.3%,i
COc1ccccc1C(=O)NCCNC(=O)c1ccco1,0.22,2.8%,i

# Bioassay records deposited in PubChem by several laboratories.
